# YopH PTP inh = inhibitors of Yersinia enterocolitica YopH tyrosine phosphatase; fluorescence Ex485/Em525; inhibition, %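 (about 10 µM by stock and volumes)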; 140,000 compounds, 0.16% hits; AID 898;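 active = inhibition of 50% or more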;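 also: controls were vehicle for no effect and minimum signal wells for full effect; inactives centre near -20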
# RecA splice inh = inhibitors of M. tuberculosis RecA intein splicing | P9WHJ3 | 290,000 compounds, 0.75% hits | cell-free RecA intein splicing, fluorescence | inhibition, %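 (about 9 µM by stock and volumes)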; in the data active = inhibition above about 30%; inconclusive = no clear call, values can overlap the other calls;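 also: 0% = vehicle wells and 100% = reference inhibitor control wells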
# Target sequence (P9WHJ3 whole entry, looked up, canonical isoform): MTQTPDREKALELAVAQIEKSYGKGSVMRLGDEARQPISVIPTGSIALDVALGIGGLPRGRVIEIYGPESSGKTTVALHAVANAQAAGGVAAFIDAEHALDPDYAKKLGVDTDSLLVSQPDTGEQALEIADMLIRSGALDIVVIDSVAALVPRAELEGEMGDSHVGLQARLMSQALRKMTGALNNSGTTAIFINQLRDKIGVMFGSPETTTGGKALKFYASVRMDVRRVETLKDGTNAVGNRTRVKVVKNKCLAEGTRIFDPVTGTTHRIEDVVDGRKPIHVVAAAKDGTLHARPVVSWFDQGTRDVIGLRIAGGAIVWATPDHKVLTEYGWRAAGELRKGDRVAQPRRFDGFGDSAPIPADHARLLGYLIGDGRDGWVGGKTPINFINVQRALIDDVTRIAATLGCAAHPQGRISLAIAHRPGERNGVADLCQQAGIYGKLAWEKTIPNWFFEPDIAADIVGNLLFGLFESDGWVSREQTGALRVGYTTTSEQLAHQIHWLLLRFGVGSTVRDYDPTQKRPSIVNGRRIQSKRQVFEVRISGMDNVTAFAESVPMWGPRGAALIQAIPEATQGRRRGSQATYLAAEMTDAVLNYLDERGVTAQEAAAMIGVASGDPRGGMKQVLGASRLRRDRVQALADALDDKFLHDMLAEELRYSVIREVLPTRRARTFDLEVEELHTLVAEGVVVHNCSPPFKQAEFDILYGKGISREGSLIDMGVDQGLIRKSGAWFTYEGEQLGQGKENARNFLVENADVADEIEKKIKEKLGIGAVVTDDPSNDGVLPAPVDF
# Mtb H37Rv = M. tuberculosis H37Rv growth inhibitors, H37Rv strain (AID 1626). M. tuberculosis H37Rv growth inhibition; higher % means a stronger effect. one-dose inhibition, % at 10 µM; IC50 in µM for titrated hits. 220,000 compounds, 0.95% hits;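 active = confirmed in a dose series; inconclusive = inhibition above 80% but not taken into the dose series; inactive = below 80% or under 30% at every dose of the series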;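 also: bacteria incubated seven days before Alamar blue readout; 0% = bacteria only wells and 100% = bacteria with antibiotic wells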
# Mtb bLac sens = beta-lactam sensitization of Mtb H37Rv; M. tuberculosis H37Rv growth with meropenem, percent inhibition; hits of this screen are not shown here; inhibition, % at 25 µM; 330,000 compounds, 0.27% hits;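 active = about 74% or more and at least 40 points above the plate without the antibiotic, then above 30% in a dose series; inconclusive = first-round hits that could not be retested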;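 also: growth measured after seven days incubation then overnight dye step; 0% = bacteria only wells and 100% = bacteria with antibiotic; twin plates without the antibiotic show which effects depend on it; some results filed as inactive read as strong as hits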
# Arbovirus anti = antivirals against arbovirus infection. inhibition, % at 10 µM. 200,000 compounds, 0.37% hits. arbovirus infection cell-based antiviral screen;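 active = inhibition from about 30%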;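 also: bluetongue infection of BSR cells; cell survival read as ATP light after 72 h; 0% = infected wells without compound and 100% = uninfected wells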
# Arbovirus anti repeat = recorded beside Arbovirus anti, whose call it bears; inhibition, %; measured here: 10K subset replicate screen; many hits read low in the repeat;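 first of two repeat runs on a subset; 0% = infected and 100% = uninfected wells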
# Active calls of the source: *; u = inconclusive; x = not tested or not shown. A portion of the library; the hit share may differ from the screen's.
SMILES,YopH PTP inh,RecA splice inh,Mtb H37Rv,Mtb bLac sens,Arbovirus anti,others
O=C(NC1CCCC1)C(c1ccncc1)N(C(=O)c1csnn1)c1ccccc1 (stereo not drawn),x,3.0,x,0,x,
N#Cc1ccsc1NC(=O)CN1CCOCC1,x,2.6,6%,1,x,
Cc1cccc(NS(=O)(=O)c2c(C(=O)N3CCCC3)c(C)n(C)c2C)c1,x,-1.1,x,-4,x,
CCn1c(SCC(=O)N/N=C/C=C/c2ccccc2[N+](=O)[O-])nnc1-c1ccc(Cl)cc1,-27,2.6,-2%,7,2,
COc1ccccc1C(=O)NCCC(=O)NNC(=O)Cn1ccc(C(F)(F)F)n1,x,-5.5,x,-6,x,
COc1ccccc1N(CN1C(=O)c2ccccc2C1=O)C(=O)c1cccc(C)c1,-18,1.9,-6%,-10,0,
CCOC(=O)C1(CCc2ccccc2)CCN(Cc2ccccn2)CC1,x,1.4,20µM*,70,4,
Cn1c(=O)c(NC(=O)c2ccccc2)c2n(c1=S)CCCCC2,15,0.2,-3%,0,8,
O=S(=O)(c1cccc(S(=O)(=O)N2CCOCC2)c1)N1CCCCCC1,x,-2.0,x,-4,x,
CSc1nc2ccccc2s1,-28,-2.1,-6%,7,3,
CCOC(=O)c1cc(NC(=O)c2cccnc2)cc(C(=O)OCC)c1,-21,0.1,6%,88,-4,
O=C(NCCc1ccccc1)c1cccc(S(=O)(=O)NCc2ccccc2)c1,x,7.5,x,-9,x,
CN(C(=O)c1cc(-c2ccccc2)on1)C1CCCCC1,x,3.5,x,23,x,
O=C(CN(c1ccccc1F)S(=O)(=O)c1ccccc1)N1CCCCCC1,-9,1.3,-7%,4,8,
CCOC(=O)C(=CNc1cc(C)ccc1C)C(=O)OCC,0,7.4,x,24,0,
CCn1c(C)nc2cc(S(=O)(=O)N3CCCC3)ccc21,-2,x,5%,-5,3,Arbovirus anti repeat=4
COc1ccc(C(=O)NCC(C)CN(C)C)cc1 (stereo not drawn),-38,-0.6,0%,-1,14,
COc1cccc(-n2c(O)c(C=NCc3ccccn3)c3ccccc3c2=O)c1,x,0.3,x,-2,x,
CCc1ccc2nc(/N=C(\N)NC(=O)c3ccccc3)nc(C)c2c1,x,1.3,2%,x,x,
CCN(C(=O)COC(=O)c1c(C)c(-c2ccccc2)nc2ccccc12)C1CCS(=O)(=O)C1 (stereo not drawn),x,-0.6,1%,1,x,
Cc1c(NC(=S)NC(NC(=O)C(C)C)C(Cl)(Cl)Cl)c(=O)n(-c2ccccc2)n1C (stereo not drawn),-25,0.9,-13%,-6,5,
CC(=O)c1cccc(NC(=O)CN2C=NS(=O)(=O)c3ccc(C)cc32)c1,x,0.2,x,2,x,
Oc1ccc(N=Nc2ccc3c(c2)OCCO3)c2cccnc12,x,-7.2,u,79,-13,
O=C(NCc1ccc(Cl)s1)C1CCC(=O)N(CCc2cccc(F)c2)C1 (stereo not drawn),x,-1.1,x,-11,x,
O=C1c2cccc3cccc(c23)C(=O)N1CC1CCN(CC(O)COc2ccc3ccccc3c2)CC1 (stereo not drawn),x,-1.3,x,100,x,
# Other structures follow:
SMILES,YopH PTP inh,RecA splice inh,Mtb H37Rv,Mtb bLac sens,Arbovirus anti,others
COc1ccc(Cl)cc1-c1nc(SCC(=O)N(C)C)n[nH]1,x,1.8,-1%,4,-1,
CN(C)CCCn1c2c(c(SCC(=O)Nc3ccc4c(c3)OCO4)nc1=O)CCCC2,x,1.1,x,-15,x,
C=CCOc1ccc(CN(C)CC(O)COc2ccc(CCC(C)=O)cc2)cc1 (stereo not drawn),x,0.5,x,-2,x,
CCCCOc1ccc(C(=O)NCC(=O)NCC2CCCO2)cc1 (stereo not drawn),x,-1.4,x,-11,x,
NS(=O)(=O)c1ccc(C(=O)Nc2ccc(-c3nc4cccnc4s3)cc2)cc1,x,-0.4,10%,-5,x,
COc1cccc(S(=O)(=O)N2CCOCC2)c1,-1,1.0,2%,6,8,
CC(C)C(=O)Nc1nnc(SCC(=O)NCc2cccs2)s1,-32,-1.4,x,2,15,
Cc1sc2ncnc(SCC(=O)NNC(=O)COc3cccc4ccccc34)c2c1C,-41,2.6,-3%,-6,3,
NC(=O)c1ccc(NC(=O)CCN=C2NS(=O)(=O)c3ccccc32)cc1,x,-1.5,x,-6,x,
CCOc1ccccc1N1CCN(C(=O)c2cn(CC3CCCCC3)nn2)CC1,x,0.6,x,76,x,
O=C(c1ccc(F)cc1)C1CCN(C(=O)NCc2ccccc2)CC1,-12,1.1,-4%,-9,5,
O=C(CSc1ccc(Cl)cc1)N1CCN(c2c(Cl)cccc2[N+](=O)[O-])CC1,-32,16,5%,15,-13,
O=[N+]([O-])c1cccc(S(=O)(=O)N2CCCCCC2)c1,-46,3.2,77%,-1,-7,
COc1ccc(C(=O)N/C(=C\c2ccccc2)C(=O)Nc2ccc(C(=O)O)cc2)cc1,x,-1.2,x,6,x,
CCn1cc(CNC(=O)C2CCC(=O)N(Cc3ccccc3F)C2)cn1 (stereo not drawn),x,-1.0,x,0,x,
Cc1ccc(-c2csc3ncn(CC#N)c(=O)c23)cc1C,x,4.8,x,1,x,
Cn1cc(CC(=O)N2CCN(c3ccccc3F)CC2)c2ccccc21,-43,-2.0,6%,7,19,
Cc1c(C(=O)NCc2ccco2)oc2ccccc12,x,0.6,x,1,x,
CN(C)c1ccc(C2CC(=O)OC3=C2C(=O)CC(C)(C)C3)cc1 (stereo not drawn),x,-4.1,-6%,1,3,
Cc1ccc(-c2csc(NC(=O)c3ccc(-c4ccccc4)cc3)n2)o1,-32,3.2,15%,-1,13,
CCOC(=O)C1=C(C)NC(=S)NC1/C=C/c1ccccc1 (stereo not drawn),-26,-0.2,6%,6,25,
Cc1ccc2c(CC(=O)N3CCN(c4ccccc4)CC3)coc2c1,x,-1.1,11%,5,11,
COc1ccccc1-c1cnn2c(N3CCOCC3)cc(C)nc12,x,-6.0,x,-3,x,
CC(C)N1C(=O)CCC1C(=O)NCc1ccccc1Cl (stereo not drawn),-34,0.2,x,2,-3,Arbovirus anti repeat=-3
C/C(N)=C(/C#N)C(=O)COC(=O)c1cc2c(s1)CCCC2,x,1.6,-2%,25,16,

# Reprinted from the listing for reference:
SMILES,YopH PTP inh,RecA splice inh,Mtb H37Rv,Mtb bLac sens,Arbovirus anti,others
Cc1ccc(-c2csc(NC(=O)c3ccc(-c4ccccc4)cc3)n2)o1,-32,3.2,15%,-1,13,
CCOC(=O)C1=C(C)NC(=S)NC1/C=C/c1ccccc1 (stereo not drawn),-26,-0.2,6%,6,25,
Cc1ccc2c(CC(=O)N3CCN(c4ccccc4)CC3)coc2c1,x,-1.1,11%,5,11,
COc1ccccc1-c1cnn2c(N3CCOCC3)cc(C)nc12,x,-6.0,x,-3,x,
CC(C)N1C(=O)CCC1C(=O)NCc1ccccc1Cl (stereo not drawn),-34,0.2,x,2,-3,Arbovirus anti repeat=-3

# Carrying on:
SMILES,YopH PTP inh,RecA splice inh,Mtb H37Rv,Mtb bLac sens,Arbovirus anti,others
O=Cc1ccc2noc(-c3ccc(Cl)cc3)c2c1,-2,-11,52%,95,-3,
Cc1ccc(/C=N/NC(=O)c2ccco2)cc1,x,0.8,-6%,-14,x,
CCOC(=O)N1CCC(C(=O)Nc2ccc(OCC)cc2)CC1,-34,-3.4,21%,-5,7,Arbovirus anti repeat=3
CCOc1cc(CNn2cnnc2)cc(Br)c1OCC(=O)NC(C)(C)C,x,0.8,x,3,x,
COc1cccc(CNC(=O)CCNS(=O)(=O)c2ccc(C)cc2)c1,x,-2.7,x,-6,x,
O=C(Nc1cccc(NC(=O)N2CCN(c3ccccc3)CC2)c1)N1CCN(c2ccccc2)CC1,-44,-0.3,-3%,83,-19,
CCc1ccc(C(=O)CSc2ncn[nH]2)cc1,-48,-1.0,5%,-4,4,
Cc1cc(C)c(S(=O)(=O)Nc2ccccc2C(=O)OCC(=O)NCc2ccccc2)c(C)c1,x,1.0,3%,13,-3,
Cc1cc(/C=C(\C#N)C(=O)Nc2ccccc2)c(C)n1-c1ccc(C(=O)O)cc1,x,-2.1,5%,69,x,
CCC1S/C(=N/N=C/c2ccco2)N(Cc2ccc(F)cc2)C1=O (stereo not drawn),x,-2.0,1%,0,x,
O=[N+]([O-])c1ccc(/C=C/C2=NN(c3ccccc3)C(c3ccco3)C2)cc1 (stereo not drawn),-12,x,5%,-2,2,
CC1CCC(NC(=O)C2CCC(CNS(=O)(=O)c3cccc4cccnc34)CC2)CC1 (stereo not drawn),x,-0.9,x,0,x,
COc1ccc(NC(=O)c2ccccc2S(=O)c2ccccc2C#N)cc1 (stereo not drawn),x,-4.4,-3%,-2,-10,
CC1(c2nnc(-c3cccc(Cl)c3)o2)CC(c2ccc(OC(F)(F)F)cc2)=NO1 (stereo not drawn),x,3.4,x,27,x,
Cc1ccc(-c2nc(-c3cccnc3)no2)cc1,-26,-0.6,-8%,-9,2,
O=C1c2ccccc2COc2ccc(O)cc21,24,1.6,-2%,10,8,
O=C(NC(=O)N1CCCC1)c1csnn1,x,1.0,5%,7,x,
Cc1cc2c(c(N3CCOCC3)n1)C(=O)OC2,-6,0.0,-14%,-1,0,
CCOCCc1nnc(NC(=O)Cc2c(F)cccc2Cl)s1,x,-3.0,-4%,-8,7,
CCCCCCOc1ccc(/C=C/C(=O)N2CCOCC2)cc1OC,x,-2.0,x,92,x,
Cc1ccc(OCC(=O)Nc2cccc3c2CCCC3)cc1C,-14,1.6,-2%,43,x,
Cc1ccc(Cn2nnc3c(=O)n(CC(=O)NCc4ccccc4)cnc32)cc1,x,-3.9,-15%,-10,-25,
CCCNC(=O)COC(=O)c1ccccc1C(=O)c1ccc(Cl)c([N+](=O)[O-])c1,x,17,80%,-8,-29,
O=C(c1cn(-c2ccccc2)nc1-c1cccs1)N1CCN(c2ccccn2)CC1,21,x,3%,38,-31,
COc1ccc(C2=Nn3c(nnc3-c3ccccn3)SC2)cc1,-31,-1.6,-7%,90,-1,

# Entries listed so far containing a CF3 group:
SMILES,YopH PTP inh,RecA splice inh,Mtb H37Rv,Mtb bLac sens,Arbovirus anti,others
COc1ccccc1C(=O)NCCC(=O)NNC(=O)Cn1ccc(C(F)(F)F)n1,x,-5.5,x,-6,x,
CC1(c2nnc(-c3cccc(Cl)c3)o2)CC(c2ccc(OC(F)(F)F)cc2)=NO1 (stereo not drawn),x,3.4,x,27,x,

# Looked up by structure from the list above (three):
SMILES,YopH PTP inh,RecA splice inh,Mtb H37Rv,Mtb bLac sens,Arbovirus anti,others
O=C(c1cn(-c2ccccc2)nc1-c1cccs1)N1CCN(c2ccccn2)CC1,21,x,3%,38,-31,
CCC1S/C(=N/N=C/c2ccco2)N(Cc2ccc(F)cc2)C1=O (stereo not drawn),x,-2.0,1%,0,x,
COc1ccc(NC(=O)c2ccccc2S(=O)c2ccccc2C#N)cc1 (stereo not drawn),x,-4.4,-3%,-2,-10,

# (cont.)
SMILES,YopH PTP inh,RecA splice inh,Mtb H37Rv,Mtb bLac sens,Arbovirus anti,others
CCSc1cc(C2C(C(=O)OC)=C(C)NC3=C2C(=O)CCC3)c(C)o1 (stereo not drawn),-12,0.2,2%,-17,-2,
Cc1cc(/C=N/NC(=O)C(=O)N2CCCC2)c(C)n1-c1cccc(Br)c1,-34,3.5,14%,-6,-4,
COc1cc(OC)c(C2Nc3ccccc3NC3=C2C(=O)CC(C)(C)C3)cc1OC (stereo not drawn),x,-3.2,x,-5,x,
Cc1ccccc1SC1CCN(Cc2nc(C3CC3)no2)CC1,x,6.4,-2%,0,8,
COc1cc(S(=O)(=O)N2CCN(c3ccccc3)CC2)ccc1Cl,-5,-1.6,1%,2,1,Arbovirus anti repeat=1
Cc1cc(C)cc(OCC(=O)Nc2ccc(S(=O)(=O)Nc3ccccn3)cc2)c1,x,3.6,6%,2,-4,
CCCOc1ccc2ccccc2c1/C=N/n1cnnc1,9,-0.7,7%,4,17,Arbovirus anti repeat=-1
COc1cccc(NC(=O)CC2SC(=Nc3ccccc3)NC2=O)c1 (stereo not drawn),-18,1.1,x,-2,14,
CC(C)C(=O)NC(Nc1cccc([N+](=O)[O-])c1)C(Cl)(Cl)Cl (stereo not drawn),x,0.7,-3%,6,-2,
CCCOc1ccc(Cc2c(O)nc(SC)[nH]c2=O)cc1C,x,-8.3,x,5,x,
OCC[n+]1ccc(/C=C/c2c[nH]c3ccccc23)cc1,-7,2.2,1%,2,15,
CCCNC(=O)N1[C@H]2CC[C@@H]1C(C(=O)OC)=C(c1cc3ccccc3o1)C2,x,-6.2,12%,-1,x,
O=P(COCCCCCOCP(=O)(c1ccccc1)c1ccccc1)(c1ccccc1)c1ccccc1,x,16,6%,-3,-14,
O=[N+]([O-])c1cccc(-c2csc(CS(=O)(=O)Cc3ccco3)n2)c1,x,-0.8,-4%,7,x,
